Kir21 inh: Kir2.1 (mouse) channel inhibition | HEK293-Kir2.1, FluxOR thallium flux fluorescence; active compounds read low | B-score at 10 µM | 310,000 tested, 0.85% active | AID 1672;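 active = fluorescence ratio B-score at or below minus 3 SD of library scores, with starting-brightness B-score within 2 SD, cut at about -4.2 in these data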;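 note: channel flux triggered by added potassium and thallium sulfate stimulus; B-score of peak minus minimum fluorescence over baseline after thallium stimulus; more negative B-score means stronger Kir2.1 block with less thallium influx; some compounds called inactive have numbers as strong as hits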
Target sequence (P35561 whole entry, looked up): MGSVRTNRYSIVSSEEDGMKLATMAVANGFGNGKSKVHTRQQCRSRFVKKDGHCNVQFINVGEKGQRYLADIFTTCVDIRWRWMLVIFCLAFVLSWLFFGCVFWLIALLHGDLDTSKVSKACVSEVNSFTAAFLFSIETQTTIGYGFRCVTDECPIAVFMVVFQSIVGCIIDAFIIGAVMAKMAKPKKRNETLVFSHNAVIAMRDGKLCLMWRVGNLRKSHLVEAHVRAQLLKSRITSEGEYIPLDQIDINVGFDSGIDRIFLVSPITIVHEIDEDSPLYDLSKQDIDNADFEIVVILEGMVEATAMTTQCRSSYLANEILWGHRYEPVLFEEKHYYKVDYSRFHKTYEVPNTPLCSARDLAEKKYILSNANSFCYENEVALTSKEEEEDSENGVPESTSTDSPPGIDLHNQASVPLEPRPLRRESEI
STK33 inh: blocks human STK33 kinase activity | purified STK33, MBP phosphorylation, ADP-Glo luminescence | inhibition, % at 10 µM | 320,000 tested, 0.073% active | Q9BYT3;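 active = inhibition at or above 25%, using the most active replicate where run in duplicate; inactive = inhibition below 25%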
Target sequence (Q9BYT3 whole entry, looked up): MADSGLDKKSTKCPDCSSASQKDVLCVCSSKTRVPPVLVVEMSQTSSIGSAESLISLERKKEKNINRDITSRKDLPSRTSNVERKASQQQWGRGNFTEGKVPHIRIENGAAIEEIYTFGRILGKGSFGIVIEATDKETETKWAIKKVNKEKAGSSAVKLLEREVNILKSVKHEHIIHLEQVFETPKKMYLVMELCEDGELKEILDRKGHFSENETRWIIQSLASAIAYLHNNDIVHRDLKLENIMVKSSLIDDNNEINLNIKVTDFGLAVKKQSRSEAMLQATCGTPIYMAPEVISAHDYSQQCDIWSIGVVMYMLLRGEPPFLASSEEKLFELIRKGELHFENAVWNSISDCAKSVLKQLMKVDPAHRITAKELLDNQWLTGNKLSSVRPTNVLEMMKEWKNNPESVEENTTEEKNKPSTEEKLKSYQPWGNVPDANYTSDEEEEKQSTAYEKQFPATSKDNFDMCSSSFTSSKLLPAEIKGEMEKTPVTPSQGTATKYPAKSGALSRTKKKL
An asterisk follows results filed as active; . = no result given.

SMILES	Kir21 inh	STK33 inh
NC(N)=NS(=O)(=O)c1ccc(N/C=C/C(=O)c2ccc(Cl)c(Cl)c2)cc1	0.16	-0.9
COCCCNCCCCOc1ccc(Br)cc1Cl	-6.8*	-1.4
O=C(/C(N=Nc1cccc([N+](=O)[O-])c1)=C(/O)c1ccc(Br)cc1)C(F)(F)F	-0.89	0.4
O=C(O)CCN1C(=O)C2C3C=CC(C2C1=O)C1C(=O)N(CCC(=O)O)C(=O)C31 (configuration not stated)	0.39	-1.9
O=C(NCc1cccnc1)c1ccccc1-c1ccccc1	0.44	-0.2
CCCCC(=O)Nc1ccc(NC(=O)c2ccc3c(c2)OCO3)cc1OC	0.55	-0.5
CC(=O)N(CC1CCCO1)c1nnc(-c2ccccn2)s1 (configuration not stated)	-0.15	-0.5
COc1ccc(F)cc1S(=O)(=O)NC(Cc1ccccc1)C(N)=O (configuration not stated)	0.81	0.1
CCOC(=O)CNc1c(N2CCN(c3ccccn3)CC2)c(=O)c1=O	0.03	-0.3
O=C(CCN1C(=O)C2C3C=CC(C3)C2C1=O)NC1CCCCC1 (configuration not stated)	1.2	1.4
CC(C)Cn1c2c(c(O)c(C(=O)Nc3ncccc3O)c1=O)CCCC2	-1.5	-0.2
CCOc1ccc(N(CC(=O)NCCOc2ccccc2OC)S(=O)(=O)c2ccccc2)cc1	-1.2	-0.4
CC(=O)Nc1ccc(N2C(=O)c3cccc4c(O)ccc(c34)C2=O)cc1	-17	-1.3
C(=N\c1ncnc2sccc12)/NOCc1ccccc1	1.5	2.9
CCN(CC)C(=O)CSc1nc(Cc2ccccc2)nc2ccccc12	-1.1	0.1
CC(C)C(NC(=O)c1ccc(C(C)(C)C)cc1)C(=O)NCC(c1ccccc1)N(C)C (configuration not stated)	-2.1	0.4
O=C(NCc1ccccc1)NC1(C(=O)N2CCOCC2)CCCCC1	0.5	-0.2
CC12CCC(C1)C(C)(C)C2OC(=O)c1ccccc1C(=O)O (configuration not stated)	1.4	-2.7
CC1CC(C)CN(CC(=O)N2c3ccccc3CCc3ccccc32)C1 (configuration not stated)	-0.16	0.4
COc1cc(NC(=S)NCCCN2CCOCC2)c(OC)cc1NC(=O)c1ccco1	2.3	1.0
Cc1cc2nnc(SCC(=O)N3C(C)CCCC3C)n2c(N)n1 (configuration not stated)	-1.2	-1.4
CN(C)S(=O)(=O)c1ccc(C(=O)N(c2ccccn2)c2ccccn2)cc1	3.1	-1.8
CCCN1C2CCCC1CC(NC(=S)Nc1cccc(C)c1C)C2 (configuration not stated)	0.11	1.3
CC(C)(C)c1ccc(C(=O)N2CCN(c3nc4ccccc4o3)CC2)cc1	0.97	-1.1
COC(=O)C1(Cc2ccccc2)NC(c2ccc(F)cc2)C2C(=O)N(C)C(=O)C21 (configuration not stated)	-0.04	-3.5
Cc1ccc(C)c(NC(=O)c2ncn[nH]2)c1	1.2	-0.9
O=C(O)CCC(=O)Nc1ccc(-n2ccc(C(F)(F)F)n2)cc1	1.6	-0.2
Cc1cccc(NC(=O)CSCC(=O)Nc2cc(Cl)ccc2N2CCN(C)CC2)c1	-4.6*	-4.1
CCC(=O)N1CCC(c2ccc(OC)cc2)=N1	0	-0.4
CC(C)(C)c1cc(-c2n[nH]c(=S)n2-c2ccc(Cl)cc2)n[nH]1	-0.02	-0.2
CCN(CC)c1ncc(C)c(=O)[nH]1	-1.7	.
Nc1nonc1-n1nnc(C(=O)N/N=C/c2cccc(F)c2)c1CN1CCCC1	-0.18	-1.8
CC(=O)N1N=C(c2ccc(C)cc2)CC1c1ccc2c(c1)OCO2 (configuration not stated)	0.82	-6.1
COCCNC(=O)c1ccc2c(c1)nc(C)n2-c1cccc(Cl)c1	0.8	0.9
COC(=O)c1c(C)cc(C)n2c1nc1ccccc12	-0.15	-1.2
CCCN(C(=O)CCNC(=O)Cn1cnc2ccccc2c1=O)c1cccc(Cl)c1	-0.97	-1.2
Cc1ccc(CC(=O)Nc2nccs2)cc1	-0.02	-0.6
CS(=O)(=O)N1CCN(c2ccccc2NC(=O)c2ccc3c(c2)OCCO3)CC1	-0.38	-2.6
COC(C)(C)[C@]12CC(O)(c3ccccc3)ON1[C@H]1CCCCC1N2O (some centres not stated)	-0.56	1.0
C=C1C(C(=O)Nc2ccc(OC)cc2)C1C(=O)Nc1ccc(OC)cc1 (configuration not stated)	0.66	0.7
O=C(Nc1ccc2c(c1)CCC2)c1ncoc1-c1ccccc1F	-1.2	.
Cc1ccc2c(Cl)cc(Cl)c(OCc3c(C)noc3C)c2n1	-1.1	-0.9
C=CCOC(=O)/C(=C\c1ccc(OC)cc1)NC(=O)c1ccco1	1.3	0.5
COc1cccc(OCC(=O)Nc2cc(Cl)ccc2Oc2ccccc2)c1	-1.4	-1.0
COc1ccc(/C=C2\N=C(c3ccccc3)N(c3ccc(C(=O)O)cc3)C2=O)cc1OC	-0.04	-1.1
CCN(CC(=O)Nc1c(F)cccc1F)C(=O)CSc1ccccc1	-0.12	0.8
Cc1ccc(CN2CCC(n3nccc3NC(=O)CCCc3ccccc3)CC2)o1	-0.73	-0.9
O=C(CSc1nnc2c(Cl)cc(Cl)cn12)N1CCN(c2ccc(F)cc2)CC1	-2.3	-1.6
CCOc1ccc2nc(NS(=O)(=O)c3ccc4c(c3)n(C)c(=O)n4C)sc2c1	0.69	-0.5
COc1ccc(OC)c(NC(=O)COC(=O)/C=C/c2ccc(Cl)cc2)c1	1.9	-0.6
CCOC(=O)C(C)Oc1ncnc2cccc(F)c12 (configuration not stated)	2.6	-1.7
COc1ccc(NC(=O)Nc2ncn(Cc3cccc(C(F)(F)F)c3)n2)cc1OC	0.3	-1.2
O=C(CSc1nc(-c2ccccc2F)nc2nc[nH]c12)Nc1c(Cl)cc(Cl)cc1Cl	0.4	-2.5
CCCC(C(=O)NCc1ccco1)N(CC1CCCO1)C(=O)CNS(=O)(=O)c1ccc(F)cc1 (configuration not stated)	0.01	-0.7
S=C(NCc1ccccc1)N1CCCCC1	-0.24	-1.0
CCc1ccc(C(=O)NN=C2CCCCCC2)s1	-0.06	0.6
O=C(c1cc2ccccc2c(=O)o1)N1CCCc2ccccc21	0.75	-1.1
Cc1ccc(F)cc1NC(=O)c1cccc2nccnc12	-0.8	-2.4
O=C(Nc1ccc(O)cc1)c1ccc2c(c1)C(=O)N(N1C(=O)c3ccccc3C1=O)C2=O	0	0.1
O=C(c1ccc(Cl)c(Cl)c1)N1CCN(c2ccccn2)CC1	0.59	0.1

Next part:
SMILES	Kir21 inh	STK33 inh
COc1ccc(/C=C/C(=O)c2ccc(C)c([N+](=O)[O-])c2)cc1O	-1.3	-1.1
CC(CC(=O)O)NCC1COc2ccccc2O1 (configuration not stated)	0.65	-3.7
CCO[C@@H]1OC(C(=O)N2CCN(Cc3ccccc3)CC2)=C[C@H](C)[C@H]1CCCO	-1.1	-0.3
O=C(CSc1ncnc2c1cnn2-c1ccccc1)Nc1ccc2c(c1)OCO2	-0.61	-0.1
CCOC(=O)C1CCN(C(=O)c2ccccc2NS(=O)(=O)c2ccc(F)cc2)CC1	1	-2.4
COc1ccc(S(=O)(=O)Nc2cccc(F)c2)cc1C	-3.1	-2.7
COc1ccc(C(=O)CN2CCN(c3ccc(F)cc3)CC2)cc1	0.98	-1.1
CC1=C(C(=O)OC(C)C)C(c2ccc(Br)s2)NC(=O)N1 (configuration not stated)	-0.38	-0.1
Cc1ccc(C2c3c(oc4ccccc4c3=O)C(=O)N2CCCN2CCOCC2)o1 (configuration not stated)	-0.38	0.2
CCOC(=O)N1CCN(C(=O)c2ccccc2N(C)S(C)(=O)=O)CC1	0.09	0.5
COc1cccc(C(=O)Nc2ccc(C(=O)c3ccccc3)cc2)c1	1	-1.6
COc1ccc(Br)cc1/C=N/NC(=O)c1ccc2nc[nH]c2c1	1.6	-0.1
CN1C(=O)CSC1=NCC12CC3CC(CC(C3)C1)C2	-0.03	-1.3
COc1ccc(N(Cc2cc(=O)[nH]c3ccccc23)C(=O)C(C)C)cc1	-0.55	0.2
O=c1[nH]c(CN2CCN(Cc3ccc4c(c3)OCO4)CC2)nc2ccccc12	0.93	0.7
CSc1ccc(CN2CCC(CO)(Cc3ccc(Cl)cc3)CC2)cc1	0.03	-1.0
CC(C)N(Cc1nc(-c2ccc(Cl)cc2)no1)Cc1nccn1C	-1.1	-2.2
O=C(CC1SC(=O)N(Cc2ccc(Cl)cc2)C1=O)Nc1nccs1 (configuration not stated)	-0.43	-0.3
Cc1ccccc1C(=O)OC1OC(=O)C(Cl)=C1Nc1ccccc1 (configuration not stated)	0.27	-1.0
O=C(c1ccc(N2CCN(C(=O)c3ccc(F)cc3F)CC2)cc1)c1cccc(F)c1	2.7	1.2
Nc1c(C(=O)N/N=C/c2ccc([N+](=O)[O-])cc2)sc2nnc(-c3ccccc3)c(-c3ccccc3)c12	-3	0.3
C=CCC1CCCCC12NC(=O)NC2=O (configuration not stated)	-0.3	-3.8
COC(=O)CCC/C=C1/SCC(NC(=O)c2ccccc2)C1NC(C)=O (configuration not stated)	1.2	-1.3
O=C(CNc1ccc2c(c1)OCO2)N/N=C\c1ccccc1Cl	-0.47	-1.4
Nc1[nH]nc2nc3ccccc3cc12	-0.03	-0.6
CCCSc1nc2c(c(=O)[nH]c(=O)n2C)n1CCc1ccccc1	0.86	-3.9
O=C(NCc1ccccn1)c1ccc2c(=O)n3nc(Nc4ccccc4)sc3nc2c1	-0.45	-2.0
CC(=O)c1ccc(NC(=S)Nc2ccc(N3CCOCC3)cc2)cc1	0.37	-0.4
COc1ccc(CCNC(=O)C2=COCCO2)cc1	-1.6	-0.2
Cn1cc(Br)c(-c2cccc(NC(=O)CCC(=O)O)c2)n1	-0.04	0.4
CC(=O)N1CCN(S(=O)(=O)c2cccc(C(=O)Nc3ccc(OC(F)F)cc3)c2)CC1	0	-0.2
Cc1nc2ccccc2nc(C)c1=NOCc1cccc(Cl)c1	-1.9	-3.7
O=C(NN=C1CCC(c2ccccc2)CC1)c1cc2c(s1)CCCC2 (configuration not stated)	0	-0.4
CC(CC(=O)N1CCN(c2ccccc2)CC1)c1ccccc1 (configuration not stated)	0.03	-0.2
CC(C)=CC(=O)OCc1csc(CC(=O)Nc2ccccc2C)n1	0.55	-1.3
O=C(O)c1ccc(N/N=C/c2cccc3nccnc23)cc1	-0.02	5.3

Whole records from above:
`CCOc1ccc(N(CC(=O)NCCOc2ccccc2OC)S(=O)(=O)c2ccccc2)cc1` as listed: Kir21 inh = -1.2; STK33 inh = -0.4
`Nc1[nH]nc2nc3ccccc3cc12` as listed: Kir21 inh = -0.03; STK33 inh = -0.6

(further entries)
SMILES	Kir21 inh	STK33 inh
CCOC(=O)C1CCCN(C(=O)C(C)Oc2ccc(Cl)cc2Cl)C1 (configuration not stated)	-4.7*	-2.8
NNC(=O)c1cc2cc3ccccc3nc2s1	-0.97	-3.0
Cc1ccc(C)c(NC(=S)N(C2CCCCC2)C(C)c2cccnc2)c1 (configuration not stated)	0.63	0.3
Cc1cc(C)cc(N2CC(O)=C(c3nc4ccccc4c(=O)[nH]3)C2=N)c1	0.23	-1.5
Cc1c(NS(=O)(=O)c2ccc(Cl)c(C(=O)OC(C)C(=O)NCc3ccco3)c2)c(=O)n(-c2ccccc2)n1C (configuration not stated)	-0.29	-0.1
COc1cc(NC(=O)Cn2c(=O)n(CC3CCCO3)c(=O)c3cc(OC)c(OC)cc32)cc(OC)c1 (configuration not stated)	-0.55	-1.2
COc1cccc(NC(=O)Cn2c(=O)c3c(ncn3Cc3ccccc3)n(Cc3ccccc3)c2=O)c1	1.4	0.8
CC(C)c1cc(CNC(=O)c2ccc(OC3CCN(Cc4ccccn4)CC3)cc2)on1	0	1.8
Cc1cccc(COc2ccc(/C=C3/C(=O)N(C)C(=S)N3C)cc2)c1	0.45	.
Cc1nc2cc(NC(=O)NCCC3=CCCCC3)ccc2o1	-1.8	-0.5
C=CCNc1nc2c(c(=O)[nH]c(=O)n2C)n1CCCCC	-0.16	-0.7
COc1ccc(CNC(=O)CN(Cc2ccccc2)C(=O)CCC(=O)Nc2ccccn2)cc1	-0.11	-0.9

Structures listed so far containing an aryl thioether with sulfur outside any ring:
SMILES	Kir21 inh	STK33 inh
CCN(CC)C(=O)CSc1nc(Cc2ccccc2)nc2ccccc12	-1.1	0.1
Cc1cc2nnc(SCC(=O)N3C(C)CCCC3C)n2c(N)n1 (configuration not stated)	-1.2	-1.4
CCN(CC(=O)Nc1c(F)cccc1F)C(=O)CSc1ccccc1	-0.12	0.8
O=C(CSc1nnc2c(Cl)cc(Cl)cn12)N1CCN(c2ccc(F)cc2)CC1	-2.3	-1.6
O=C(CSc1nc(-c2ccccc2F)nc2nc[nH]c12)Nc1c(Cl)cc(Cl)cc1Cl	0.4	-2.5
O=C(CSc1ncnc2c1cnn2-c1ccccc1)Nc1ccc2c(c1)OCO2	-0.61	-0.1
CSc1ccc(CN2CCC(CO)(Cc3ccc(Cl)cc3)CC2)cc1	0.03	-1.0
CCCSc1nc2c(c(=O)[nH]c(=O)n2C)n1CCc1ccccc1	0.86	-3.9

More structures
SMILES	Kir21 inh	STK33 inh
CCN(CC)C(=O)c1ccccc1NC(=O)c1ccccc1C	1.3	1.1
CC1CC(=O)N(CC(=O)NCc2ccco2)c2ccccc2S1 (configuration not stated)	0.85	-2.1
Cc1cc(N2CC(C)OC(C)C2)nc(C(C)C)n1 (configuration not stated)	-1.6	0.4
COc1ccc(C=O)cc1Oc1nc(Cl)ncc1F	-0.67	0.0
CN(C)CCn1c(NCc2ccc3c(c2)OCO3)nc2ccccc21	0.98	-16

Of the compounds above, these have two or more sulfur atoms.
SMILES	Kir21 inh	STK33 inh
CCOc1ccc2nc(NS(=O)(=O)c3ccc4c(c3)n(C)c(=O)n4C)sc2c1	0.69	-0.5
O=C(CC1SC(=O)N(Cc2ccc(Cl)cc2)C1=O)Nc1nccs1 (configuration not stated)	-0.43	-0.3

The list is partial, and most or all hits are left out here.
